Screens as filed in PubChem BioAssay.
miR-21 FLuc: raises the signal of a miR-21 reporter | HeLa miR-21 FLuc reporter, luciferase, 48 h | Potency, µM (doses to about 38.3 µM), inactives show top-dose reporter change, positive = more light | 340,000 tested, under 10 active; active = well fitted rising curve with a large enough effect; inconclusive = small, poorly fitted or top-dose-only effect; inactive = no such curve, though single readings can be large or run the other way;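 also: % of control where 0% means no effect; miR-21 action dims this reporter so a rising signal means less miR-21 action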
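Using DMEM plus 10% FBS, HeLa miR-21-FLuc cells are incubated with test compounds (final up to about 40uM) for 48 hours; firefly luciferase signal is then imaged following reagent-mediated lysis.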
Rango release inh: prevents RanGTP from dissociating the Rango-importin beta complex; O95149+P62826; Biochemical FRET Rango-importin beta, RanGTP-induced dissociation; Potency, µM (highest dose often 46.1 µM), for inactives: at the highest dose activity change, negative = inhibition; 340,000 tested, 0.071% active; AID 540253; active means falling FRET ratio curve, often poorly fitted, with flat reads before Ran was added; inconclusive means other falling curves, or compound fluorescence or quenching; inactive means flat or rising ratio curve;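 also: potency is read from the fitted curve at half-maximal effect; % of control where 0% means no effect; nearly all actives have a fitted effect of over 45% in size; -100% = wells without RanGTP and RCC1; the record marks most hits as doubtful in a second field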
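Rango/importin beta premix (0.1/0.25 uM final), PBS + 1 mM DTT + 0.02% Tween-20 + 0.1% BSA; cpd 5 min RT; FRET pre-read; + RanGTP-RCC1 (0.6 uM Ran, 2 mM GTP, 0.2 uM RCC1); 45 min RT; FRET post-read, ex 430, em 486/530 nm.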
Rango complex inh: Rango-importin beta binding inhibition; Rango CFP/YFP FRET sensor + importin beta, 45 min; Potency, µM (series often up to 92.2 µM), for the others: at the highest dose inhibition of complex formation; 340,000 tested, 0.031% active; AID 540263; active = rising FRET ratio curve, often small or poorly fitted; inconclusive = mostly compound fluorescence or quenching in the first reads; inactive = flat curves in all reads;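 also: potency is read from the fitted curve at half-maximal effect; 0% = DMSO wells and 100% = buffer wells lacking importin beta; nearly all actives have a fitted effect of over 15% in size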
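FRET biosensor (snurportin 1 IBB flanked by EYFP and cerulean), 50 nM, with compound 5 min, then 0.125 microM importin beta in PBS, 1 mM DTT, 0.02% Tween-20, 0.1% BSA. CFP/YFP ratio read after 45 min at room temperature; pre-read flags interference.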
GLA inh pH 4.5: inhibitors of human alpha-galactosidase A at pH 4.5 | activity change, negative = inhibition, % at 105 µM | P06280 | 230,000 tested, under 10 active | purified enzyme, 4-MU-alpha-Gal fluorescence, pH 4.5; inconclusive = small, poorly fitted or top-dose-only inhibition, or a rising curve; inactive = flat fitted curve, though single readings scatter; no compound was filed as active;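 also: 0% = full activity with enzyme and -100% = basal without enzyme; dose as in the result columns while the protocol names 77 µM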
Target sequence (P06280 whole entry, looked up): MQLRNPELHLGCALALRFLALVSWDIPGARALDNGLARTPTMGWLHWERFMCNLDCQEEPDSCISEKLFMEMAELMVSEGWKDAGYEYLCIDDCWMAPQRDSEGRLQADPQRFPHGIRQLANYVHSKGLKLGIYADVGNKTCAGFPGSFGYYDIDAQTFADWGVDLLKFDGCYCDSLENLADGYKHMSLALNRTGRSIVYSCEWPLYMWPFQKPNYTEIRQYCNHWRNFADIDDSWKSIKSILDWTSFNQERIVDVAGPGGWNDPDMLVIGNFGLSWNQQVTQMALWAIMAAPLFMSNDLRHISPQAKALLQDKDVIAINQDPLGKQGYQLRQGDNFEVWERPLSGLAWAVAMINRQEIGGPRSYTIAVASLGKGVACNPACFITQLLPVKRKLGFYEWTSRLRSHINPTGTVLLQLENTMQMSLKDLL
Active calls of the source: *; u = inconclusive; x = not tested or not shown; & = joins results of further samples. Only part of the results is shown; rates above refer to the full screens.

| cpd | structure | Rango complex inh | Rango release inh | miR-21 FLuc | GLA inh pH 4.5 |
| --- | --- | --- | --- | --- | --- |
| 1 | Cc1ccc(C)c(OCC(=O)N(C)CC(=O)Nc2ccc(Cl)c(C(F)(F)F)c2)c1 | -2.5% | 19% | x | x |
| 2 | Cc1sc(/N=C/c2c(O)ccc3ccccc23)c(C#N)c1C | x | x | 0% | -1 |
| 3 | CCOC(=O)C1=C(c2ccccc2)Nc2ncnn2C1c1ccc(O)cc1 (stereo not given) | -2.2% | u | -14% | 14 |
| 4 | CC1(C)Cc2c(sc3ncn4c(=S)[nH]nc4c23)CO1 | -6.6% | 1% | 0% | 2 |
| 5 | C=CCNC(=O)c1c[nH]c2ccc(S(=O)(=O)N(C)c3ccc(OCC)cc3)cc2c1=O | 5.4% | 4% | 21% | x |
| 6 | Nc1c(C(=O)c2ccc(Cl)cc2)sc2nsc(SCCN3CCOCC3)c12 | u | u | -1% | -5 |
| 7 | CCCCn1c(=O)[nH]c(=O)c2c1nc(-c1ccc(-c3ccc(F)cc3)o1)n2C | u | u | -8% | 11 |
| 8 | CC(OC(=O)c1ccco1)C(=O)Nc1nc(-c2ccccc2)cs1 (stereo not given) | -6.6% | 7% | x | x |
| 9 | Cc1ccc(C(=O)Oc2ccccc2N2C(=O)C3CCCCC3C2=O)cc1 (stereo not given) | 0.3% | -13% | -21% | 5 |
| 10 | COc1ccc(OC)c(C(=O)CC2OC(=O)c3ccccc32)c1 (stereo not given) | 0.6% | -4% | 6% | -2 |
| 11 | COc1cc(CSc2nnnn2-c2ccc(C)cc2)cc(OC)c1OC | -3.8% | 0% | 19% | -7 |
| 12 | O=C(O)/C(=C\c1ccco1)NC(=O)c1cccc2ccccc12 | -3.3% | -5% | 1% | 1 |
| 13 | COc1ccc(S(=O)(=O)Nc2ccccc2OC)cc1NC(=O)c1cc2ccccc2oc1=O | 2.4% | -2% | -68% | 1 |
| 14 | COc1cccc(CNC(=O)CC2Sc3ccccc3NC2=O)c1 (stereo not given) | -6.1% | 30% | -7% | -2 |
| 15 | CC1(C(=O)N2CCC(CC3CC(c4ccc(Cl)cc4)=NO3)(C(=O)NCC3CCCCC3)CC2)CC1 (stereo not given) | -0.7% | 1% | 2% | x |
| 16 | c1ccc(-c2nc3ccccc3s2)nc1 | u | u | -38%&-53% | 1&-5 |
| 17 | Cc1ccc(NC(=O)c2c(C)nn(-c3ccccc3)c2Cl)c(C)c1 | -3.8% | -1% | -21% | -1 |
| 18 | CC(=O)c1ccc(NC(=O)C2CCCN2S(=O)(=O)c2cccs2)cc1 (stereo not given) | -0.9% | 11% | x | x |
| 19 | O=C(Nc1ccncc1)C1CCC(CNS(=O)(=O)c2cccc3nsnc23)CC1 (stereo not given) | 2.5% | -5% | 15% | -11 |
| 20 | COCCCNC(=O)Cn1cc(/C=C(\C#N)C(=O)NC2CCCC2)c2ccccc21 | u | u | -13% | x |
| 21 | O=C(CCc1nnc(-c2ccc3c(c2)OCO3)o1)N(Cc1ccncc1)CC1CCCO1 (stereo not given) | -4.5% | -16% | -2% | 2 |
| 22 | Cc1cc(C)cc(C(=O)N2CCN(Cc3ccc4c(c3)OCO4)CC2)c1 | 4.4% | 3% | -2% | x |
| 23 | CCOC(=O)C1=C(COC(=O)COc2ccc(Br)cc2)NC(=O)NC1C (stereo not given) | 4.6% | -15% | x | x |
| 24 | CC(C)c1nc2oc3c(NCC4CCCO4)ncnc3c2c2c1COC(C)(C)C2 (stereo not given) | -1.9% | -9% | -9% | -16 |
| 25 | CCSc1nc2ccccc2n1C(=O)/C=C\c1ccc(OC)c(OC)c1 | 0.3% | -1% | -11% | -13 |
| 26 | Cn1cccc1Cc1nnc(SCC(=O)N2CCc3ccccc32)n1-c1ccc(F)cc1 | -0.1% | -17% | -3% | 2 |
| 27 | CN(C)S(=O)(=O)c1ccc(NC(=O)CN2C(=O)NC3(CCCC3)C2=O)cc1 | 0.6% | -1% | -2% | x |
| 28 | CCCCCn1c(C(Cc2ccccc2)NC(=O)COC)nc2ccccc21 (stereo not given) | -0.4% | 1% | 4% | -4 |
| 29 | CS(=O)(=O)N1CCN(c2ccc([N+](=O)[O-])c(SCc3ccco3)c2)CC1 | 1.3% | 11% | -5% | -6 |
| 30 | COc1ccc(-c2nc(NC(=O)c3ccc(OCC(=O)N4CCOCC4)c(OC)c3)sc2C)cc1 | 0.9% | 8% | -9% | -14 |
| 31 | Cc1nn(-c2ccccc2)c(C)c1NC(=O)COC(=O)c1cccc(OC(F)F)c1 | 1.7% | 10% | x | x |
| 32 | CCCC(=O)Nc1nnc(-c2ccc3c(c2)OCCO3)o1 | -0.5% | 6% | -24% | -3 |
| 33 | COc1ccc(CSCC(=O)NCCC(C)C)cc1 | -0.2% | -9% | -7% | 6 |
| 34 | O=C(O)c1ccc(S(=O)(=O)c2ccc(Sc3ccc(C(=O)O)c(C(=O)O)c3)cc2)cc1 | -0.7% | 1% | -3% | 6 |
| 35 | CCOc1ccccc1N1CC(C(=O)Nc2ccccc2N2CCCC2)CC1=O (stereo not given) | 0.3% | 0% | x | x |
| 36 | CCN(CC)c1ccc2cc(/C(N)=N/NC(=O)c3cccs3)c(=O)oc2c1 | x | x | -9% | 3 |
| 37 | CCC(=O)N1CCc2cc(S(=O)(=O)NC(Cc3ccccc3)C(=O)NC3CCCC3)ccc21 (stereo not given) | -0.4% | 3% | -7% | 0 |
| 38 | Cc1cc(C(F)(F)F)nn1CC(=O)NNC(=S)Nc1ccc(Cl)cc1 | 2.3% | 18% | -5% | 6 |
| 39 | Clc1cccc(OCCn2cncn2)c1Cl | 3.0% | 23% | -13% | -8 |
| 40 | CCN(CC)CCCn1c(=S)[nH]c2ccccc2c1=O | 4.7% | 27% | 0% | 3 |
| 41 | Cn1c(CSCc2ccc(Cl)cc2)n[nH]c1=S | 3.5% | 19% | 3% | 7 |
| 42 | COc1cc(/C(C)=N/Nc2ccc(C(=O)O)cc2)cc(OC)c1OC | -2.6% | 4% | -62% | 3 |
| 43 | CC1=C(C(=O)NCCCOC(C)C)C2(CCC(C)CC2)OC1=O (stereo not given) | 4.0% | -11% | -4% | -15 |
| 44 | CCn1c(=S)sc2c(=O)n(CC(=O)Nc3cc(OC)ccc3OC)c(C)nc21 | -3.5% | 17% | -2% | x |
| 45 | CCOC(=O)c1c(N2CCN(c3ccccc3)CC2)cc(C)nc1C | 0.4% | 14% | 17% | x |
| 46 | CC(=O)c1cccc(N(CC(=O)NC2CCCCC2)C(=O)CCC(=O)Nc2nc(C)cs2)c1 | -1.5% | 0% | -3% | x |
| 47 | CCc1nnc(NC(=O)CSc2nnnn2-c2cccc(C(C)=O)c2)s1 | u | -1% | -1% | 13 |
| 48 | COc1cccc(OC)c1OCCCNC1CCCC1 | 0.5% | 17% | -5% | x |
| 49 | Cc1cc(C)c2nc(N3CCC(C(=O)N4CCCC4)CC3)sc2c1 | 1.8% | -6% | -7% | -4 |
| 50 | OC[C@H]1O[C@@H](Oc2cc(O)cc(/C=C/c3ccc(O)cc3)c2)[C@H](O)[C@@H](O)[C@@H]1O | x | x | -11% | 3 |

(next part)
| cpd | structure | Rango complex inh | Rango release inh | miR-21 FLuc | GLA inh pH 4.5 |
| --- | --- | --- | --- | --- | --- |
| 51 | Cc1ccc2c(C)c(C(=O)N(Cc3cccs3)C3CCS(=O)(=O)C3)oc2c1 (stereo not given) | 2.3% | -2% | 0% | -2 |
| 52 | CSc1nsc(SCc2cnc(C)nc2N)n1 | -0.1% | 13% | -10% | 4 |
| 53 | O=C1N(c2ccccc2C(F)(F)F)O[C@@]1(c1ccccc1)C1CCCC1 | 3.9% | 2% | x | x |
| 54 | CCOc1ccccc1-n1c(SCC(N)=O)nc2ccccc2c1=O | u | -5% | -2% | 5 |
| 55 | O=C(NCCCN1CCOCC1)c1cc(-c2ccc(Br)cc2)on1 | -6.4% | 1% | 10% | 1 |
| 56 | O=C(O)C1CCCCC1C(=O)Nc1nccs1 (stereo not given) | -1.6% | -1% | -6% | 18 |
| 57 | CC(C)Cc1nnc(NC(=O)CCC(=O)N2CCC(C)CC2)s1 | -2.0% | -17% | 2% | x |
| 58 | S=C(Nc1ccccc1)N(Cc1ccccc1)Cc1ccncc1 | 0.7% | 25% | 5% | 4 |
| 59 | COCC(C)N=C1SCCN1Cc1ccccc1 (stereo not given) | -6.2% | -14% | 1% | x |
| 60 | CNc1nc(N)c([N+](=O)[O-])c(NCc2ccccc2)n1 | 0.2% | -6% | -71% | 8 |
| 61 | COc1ccccc1OCC(=O)OC/C(O)=C(\C#N)c1nc2ccccc2[nH]1 | u | u | 5% | 8 |
| 62 | Cc1csc2nc(O)c(C(=O)NC3CCCCCC3)c(=O)n12 | 4.1% | -2% | x | x |
| 63 | CCOC(=O)c1ccc(N2C(=O)CC(NC3CCN(C(=O)c4cccc(Cl)c4)CC3)C2=O)cc1 (stereo not given) | -0.2% | 2% | -3% | 4 |
| 64 | COc1cc(OC)c(C(=O)NCC2CCCO2)cc1OC (stereo not given) | 2.8% | 2% | 4% | 8 |
| 65 | CC(=O)/C(N=Nc1ccc(SC(F)F)cc1)=C(\C)O | -3.3% | -15% | -10% | -8 |
| 66 | Cc1ccc(N(Cc2ccccc2)C(=O)c2cc(S(=O)(=O)N3CCOCC3)ccc2C)cc1 | -0.8% | 6% | x | x |
| 67 | CCCn1c(-c2ccc(F)cc2)n[nH]c1=S | -0.1% | -2% | -2% | -13 |
| 68 | Oc1[nH]c2ccccc2c1N=Nc1nc2ccccc2s1 | 3.9% | 10% | -45% | 2 |
| 69 | CCC(C)Sc1ccc(-c2nc3ccc(C)cn3c2NC2CCCCC2)cc1 (stereo not given) | u | -22% | x | x |
| 70 | COCCn1c(C)cc(C(=O)COC(=O)c2ccc3c(c2)NC(=O)CS3)c1C | 0.1% | -2% | -38% | -10 |
| 71 | COC(=O)Cc1ccc2oc(-c3cccnc3)nc2c1 | -2.5% | 1% | -57% | -2 |
| 72 | Cn1c(SCC(=O)N2CCN(c3ccccc3)CC2)nnc1-c1c[nH]c2ccccc12 | -0.4% | -13% | u | 8 |
| 73 | CCOc1cc(NC(=S)NCCCN(C)C)c(OCC)cc1NC(=O)C1CC1 | 0.0% | -9% | 0% | 4 |
| 74 | Nc1cnn(C2CCCO2)c(=O)n1 (stereo not given) | -3.8% | 11% | -2% | x |
| 75 | Cc1cccc(C(=O)OCC(=O)Nc2ccc(N3CCCCC3)cc2)c1O | 0.0% | 0% | -2% | 4 |
| 76 | O=c1ccc(=O)n2n1CC(O)C2 | 3.9% | 5% | -1% | -2 |
| 77 | Cn1c(SCc2ccccc2)nc2ccsc2c1=O | 0.3% | 0% | 12% | 8 |
| 78 | COc1ccc(NC(=O)Nc2ccc3nonc3c2)cc1 | 0.4% | -8% | -17% | -4 |
| 79 | CCOC(=O)C1CCCCN1Cc1ccc(-c2ccccc2)cc1 (stereo not given) | 0.4% | 16% | 3% | x |
| 80 | O=[N+]([O-])c1cc(Br)cc(/C=N/n2cnnc2)c1O | 4.2% | 1% | -15% | 1 |
| 81 | CCOC(=O)c1sc(/N=C/N(C)C)c(C(=O)OCC)c1C | -1.8% | 13% | -28% | -5 |
| 82 | NC(N)=NN=C1c2ccccc2-c2ccccc21 | 5.0% | 2% | -3% | x |
| 83 | Cc1ccc(F)cc1NC(=O)N1c2ccccc2NC(=O)CC1C (stereo not given) | 0.3% | -3% | -1% | 7 |
| 84 | COc1ccc(CC(=O)Nc2ccc(-c3noc(-c4ccc(Cl)cc4)n3)cc2)cc1 | 1.3% | 13% | -4% | -9 |
| 85 | O=C(CCN1C(=O)c2ccccc2C1=O)C1=NN[C@@H]2C(=O)N(c3cccc(Cl)c3)C(=O)[C@H]12 | -1.5% | 1% | 0% | 6 |
